High-throughput results deposited in PubChem by NMMLSC.
FPR binding: FPR binders displacing fluorescent formyl peptide, primary screen, U937-FPR cells, fMLFK-FITC, flow cytometry (AID 362); inhibition, %; fMet-Leu-Phe receptor (Homo sapiens); actives 1% (n = 4,300); U937-FPR cells, fMLFK-FITC displacement, flow cytometry; stronger effect = higher value; test concentration not given here; most inactive calls were filed without a number and no value below 0 was filed;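 active means inhibition of labelled peptide binding to the formyl peptide receptor of at least 65%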;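 further: plate controls were buffer control wells for no effect and unlabeled fMLFF blocking peptide for full effect; higher means less cell fluorescence so more probe displaced; part of the set was picked by virtual screening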
Active calls of the source: *; i = inactive. Not all compounds are listed; rates above refer to the full screens.

The first three entries (preview)
nr	FPR binding	smiles
1	7	CC(C)Cn1cc(C(=O)NCCN2CCN(c3cccc(Cl)c3)CC2)c2c3ccccc3n(C)c2c1=O
2	i	CC(N)C(=O)NC(CCCCN)C(=O)O (stereo not given)
3	16	O=C(N(CC1=CCS(=O)(=O)C1)c1ccccc1)C12CC3CC(CC(C3)C1)C2

The whole of this part (from the top)
nr	FPR binding	smiles
1	7	CC(C)Cn1cc(C(=O)NCCN2CCN(c3cccc(Cl)c3)CC2)c2c3ccccc3n(C)c2c1=O
2	i	CC(N)C(=O)NC(CCCCN)C(=O)O (stereo not given)
3	16	O=C(N(CC1=CCS(=O)(=O)C1)c1ccccc1)C12CC3CC(CC(C3)C1)C2
4	6	CCCC1N=C(c2cccc(OC)c2)CC(c2ccccc2O)N1 (stereo not given)
5	i	COc1cccc(/C=C2\CCCC3=C2Nc2ncnn2C3c2cccc(OC)c2OC)c1OC (stereo not given)
6	1	CC1=C(C(=O)OCC2CCCCC2)C(c2ccc(O)cc2)NC(=O)N1 (stereo not given)
7	i	CCOC(=O)C1CCC(CN(Cc2ccccc2C)S(=O)(=O)c2cccc(Cl)c2)CC1 (stereo not given)
8	8	CCCCCn1c(SCC(=O)NCCc2ccccc2)nc2cc(C(=O)N3CCC(C(N)=O)CC3)ccc2c1=O
9	i	CCCC1=C(C(=O)OCC)C(c2ccc(Cl)cc2)n2ncnc2N1 (stereo not given)
10	3	COc1ccc(C2/C(=C(\O)c3ccc([N+](=O)[O-])cc3)C(=O)C(=O)N2CCCCCC(=O)O)c(OC)c1 (stereo not given)
11	25	Cc1ccc(NC(=O)C23CC4CC(C2)CC(n2cncn2)(C4)C3)cc1Cl
12	i	O=C(O)C1CCCCC1C(=O)N1CCN(C/C=C/c2ccccc2)CC1 (stereo not given)
13	i	CCOc1ccc(N2C(=O)Nc3ccc(Br)cc3C2(O)C(=O)NC2CCCC(C)C2C)cc1 (stereo not given)
14	i	CCCCCCc1cc2c(C(F)(F)F)cc(=O)oc2cc1OC(C)=O
15	i	CCOC(=O)c1cc2c(=O)n3ccccc3nc2n(C2CCCCC2)c1=NC(C)=O

Reprinted at random: 2 records from the list, in no set order.
nr	FPR binding	smiles
15	i	CCOC(=O)c1cc2c(=O)n3ccccc3nc2n(C2CCCCC2)c1=NC(C)=O
4	6	CCCC1N=C(c2cccc(OC)c2)CC(c2ccccc2O)N1 (stereo not given)

Going on with the list.
nr	FPR binding	smiles
16	i	CCN(CCCNC(=O)CSc1c2c(nc3ccccc13)CCCC2)Cc1ccccc1
17	3	CC(C)c1ccc(OCC(=O)Oc2ccc3c4c(c(=O)oc3c2)CCC4)cc1
18	i	COc1cccc(/C=C2/CCCC3=C2OC(N)=C(C#N)C3c2cccc(OC)c2OC)c1OC (stereo not given)
19	i	CC(C)Cn1c(SCc2ccc(Cl)cc2)nnc1-c1ccncc1
20	4	COC(=O)C1C(=O)C2=C(CC1C)NC(C)=C(C(=O)OC(C)C)C2c1ccc(C)c([N+](=O)[O-])c1 (stereo not given)
21	i	CC(=O)N1CCCc2cc(S(=O)(=O)NC(C(=O)Nc3ccc(C(C)C)cc3)C(C)C)ccc21 (stereo not given)
22	i	COc1ccc(N(CC(=O)N2CC3CC(C2)c2cccc(=O)n2C3)S(=O)(=O)c2c(C)noc2C)cc1 (stereo not given)
23	3	Cc1nc(-n2cnc3cc(C)c(C)cc32)c2c3c(sc2n1)CCCC3
24	i	CCC(C)NC(=O)C1CCC(CNS(=O)(=O)c2ccc(F)cc2)CC1 (stereo not given)
25	i	CCOC(=O)CSc1nc2ccsc2c(=O)n1CCCCCC(=O)NCCc1ccccc1
26	18	CCCc1ccc(Oc2c(C(F)(F)F)oc3cc(O)ccc3c2=O)cc1
27	i	CC(C)Cc1nn(-c2ccccc2)cc1/C=C1\CCc2ccccc2C1=O
28	29	CC1(C)CC(=O)C2=C(C1)OC1=C(C(=O)CC(C)(C)C1)C2c1ccc(O)cc1O
29	i	CCc1ccc(NC(=O)C(NS(=O)(=O)c2ccc3c(c2)CCCN3C(C)=O)C(C)C)cc1 (stereo not given)
30	i	COc1ccc2c(c1)C(C)=CC(C)(C)N2C(=O)Nc1ccccc1

Values by screen from the list:
Nos. 24 to 28 in FPR binding read i, i, 18, i, 29

Next part
nr	FPR binding	smiles
31	12	COc1cc2c(cc1OC)C1(CCCC1)CN=C2c1ccc([N+](=O)[O-])cc1
32	0	CCCCCCNC(=O)CC(NS(=O)(=O)c1ccc(OC)cc1)C(C)C (stereo not given)
33	11	Cc1ccc(-n2c3c(c(=O)[nH]c2=O)C(NC(=O)c2ccccc2C)(C(F)(F)F)C(=O)N3)cc1 (stereo not given)
34	0	COCCNC(=O)CSc1nc2ccsc2c(=O)n1CCCCCC(=O)NCCc1ccc(OC)c(OC)c1
35	i	Cc1ccc(N(C(=O)C2CCC(=O)N2)C2(C(=O)NC3CCCC3)CCCCC2)cc1 (stereo not given)
36	7	CCCCCn1c(SCC(=O)OCC)nc2cc(C(=O)N(C)Cc3ccccc3)ccc2c1=O
37	i	CC(C)CC(C(=O)Nc1nc2ccccc2s1)N1C(=O)c2ccccc2C1=O (stereo not given)
38	i	COc1ccc(NC(=O)CSc2nc3ccsc3c(=O)n2CC2CCC(C(=O)O)CC2)c(OC)c1 (stereo not given)
39	i	CCCCN(CC)CCCNC(=O)c1cn(CC(C)C)c(=O)c2c1c1ccccc1n2C
40	6	COc1ccc(CNC(=O)c2cn(CC(C)C)c(=O)c3c2c2ccccc2n3C)cc1
41	i	CCCCCOc1ccc(C(O)(CCC)CCN2CCOCC2)cc1 (stereo not given)
42	i	CC(=O)Oc1cccc(C2C(C(=O)OCC(C)C)=C(C)N=C3SCCC(=O)N32)c1 (stereo not given)
43	i	COc1cc(N2C(=O)C3C4C=CC(C4)C3C2=O)cc(OC)c1OC (stereo not given)
44	8	CC(C)CN(CC(C)C)S(=O)(=O)c1ccc(C(=O)Nc2ccccc2-c2nc3ccccc3[nH]2)cc1
45	i	CC1CC(C)CN(S(=O)(=O)c2ccc(Sc3ccc(F)cc3)c(C(=O)N3CCC4(CC3)OCCO4)c2)C1 (stereo not given)
46	0	COc1ccc(NC(=O)CCCCCn2c(SCC(=O)NCCc3ccccc3)nc3ccsc3c2=O)cc1
47	i	CCOC(=O)C(NS(=O)(=O)c1ccc([N+](=O)[O-])cc1)C(C)C (stereo not given)
48	14	CCOC(=O)C1=C(C(F)(F)F)Nc2ncnn2C1c1cc(OC)ccc1OC (stereo not given)
49	1	COc1ccccc1Nc1nc(C)nc2sc3c(c12)CCCC3
50	i	Cc1ccc(C(=O)Oc2ccc(C3C4=C(CC(C)(C)CC4=O)OC4=C3C(=O)CC(C)(C)C4)cc2)cc1
51	i	Cc1ccc(S(=O)(=O)NCCC(=O)Oc2ccc3c4c(c(=O)oc3c2)CCCC4)cc1
52	9	CC(=O)Oc1ccc2c(=O)c(Oc3cc(C)cc(C)c3)c(C(F)(F)F)oc2c1
53	i	CCCCn1c(=NC(=O)c2cccc(OC)c2)c(C(=O)OCC)cc2c(=O)n3ccccc3nc21
54	i	CC1(C)C2([N+](=O)[O-])CN3CC1([N+](=O)[O-])CN(C2)C3C(O)C(O)C(O)C(O)CO (stereo not given)
55	10	CCOC(=O)COc1ccc(C2C3=C(CC(C)(C)CC3=O)OC3=C2C(=O)CC(C)(C)C3)cc1OC
56	6	CN(C)Cc1c(O)ccc2c(=O)c(-c3ccccc3Cl)c(C(F)(F)F)oc12
57	i	CC1CC(C)CN(S(=O)(=O)N2CCCC(C(=O)O)C2)C1 (stereo not given)
58	8	COC(=O)c1cc(COc2cc3oc(=O)c4c(c3cc2Cl)CCCC4)c(C)o1
59	i	COc1cc(C2C3=C(CC(C)(C)CC3=O)OC3=C2C(=O)CC(C)(C)C3)ccc1OC(=O)CNc1ccc2c(c1)OCO2
60	23	CSc1ccc(C2C3=C(CC(C)(C)CC3=O)Nc3nnnn32)cc1 (stereo not given)
61	14	CCCOC(=O)C1=C(C)NC2=C(C(=O)C(C(=O)OC)C(C)C2)C1c1ccc(OC)c(OC)c1 (stereo not given)
62	i	COC(=O)CSC1=C(C#N)C2(CCCCC2)C(c2nc(-c3ccccc3)cs2)C(N)=N1 (stereo not given)
63	i	COc1ccc(CCNC(=O)C2CCC(CNS(=O)(=O)c3ccc(C)cc3)CC2)cc1OC (stereo not given)
64	i	CCOC(=O)c1cc2c(=O)n3ccccc3nc2n(CC(C)C)c1=NC(=O)c1cccc2ccccc12
65	i	COC(=O)c1cc2c(=O)n3ccccc3nc2n(C2CCCCC2)c1=N
66	36	CCCOC(=O)c1c(NC(=O)C2CCCCC2C(=O)O)sc(C)c1C (stereo not given)
67	i	COc1cc([N+](=O)[O-])cc2c1OC1(C=C2)N(C)c2ccccc2C1(C)C (stereo not given)
68	12	CCOC(=O)C1=C(C)NC2=C(C(=O)C(C(=O)OC)C(C)C2)C1c1cc(OC)c(OC)cc1Br (stereo not given)
69	i	COc1c2occc2c(OC)c2c(=O)cc(C(F)(F)C(F)F)oc12
70	i	Cc1ccc(NC(=O)C2CCC(CNC(=O)c3ccc(=O)[nH]c3)CC2)cc1 (stereo not given)
71	i	O=C1C2C3C=CC(C3)C2C(=O)N1c1ccc(-c2nc3ccc(N4C(=O)C5C6C=CC(C6)C5C4=O)cc3[nH]2)cc1 (stereo not given)
72	i	CC(=O)c1cccc(N2C(=O)C3C(C2=O)C2C=CC3C23CC3)c1 (stereo not given)
73	4	COc1ccc(C(=O)NCC2(c3ccc(OC)c(OC)c3)CCCC2)cc1OC
74	21	CC(C)(C)c1cc(Nc2ccccc2[N+](=O)[O-])cc(C(C)(C)C)c1O
75	i	Cn1c2ccccc2c2c(C(=O)N3CCOCC3)cn(C3CCCC3)c(=O)c21

Overlap with the part before: 3 compounds; new compounds follow.
nr	FPR binding	smiles
73	4	COc1ccc(C(=O)NCC2(c3ccc(OC)c(OC)c3)CCCC2)cc1OC
74	21	CC(C)(C)c1cc(Nc2ccccc2[N+](=O)[O-])cc(C(C)(C)C)c1O
75	i	Cn1c2ccccc2c2c(C(=O)N3CCOCC3)cn(C3CCCC3)c(=O)c21
76	10	Nc1c(C(=O)O)sc2nc(C3CC3)cc(C(F)(F)F)c12
77	i	CCCCN(CCCC)S(=O)(=O)c1cccc(C(=O)Nc2ccccc2[N+](=O)[O-])c1
78	2	CCOC(=O)Oc1ccc2c(c1)C(C)=CC(C)(C)N2C(=O)OCC
79	i	CC1=C(C(=O)OC2CCCCCC2)C(c2ccc3c(c2)OCO3)NC(=O)N1C (stereo not given)
80	6	CCOC(=O)c1cc2c(=O)n3ccccc3nc2n(CC(C)C)c1=NC(=O)c1ccccc1
81	1	O=C(O)C1CCC(Cn2c(SCc3cc(=O)n4cc(Cl)ccc4n3)nc3ccsc3c2=O)CC1 (stereo not given)
82	16	CCCOC(=O)C1=C(C)NC2=C(C(=O)C(C(=O)OC)C(C)C2)C1c1ccc(OC)cc1 (stereo not given)
83	i	CC(=O)N1CCc2cc(S(=O)(=O)NC(C(=O)Nc3ncc([N+](=O)[O-])s3)C(C)C)ccc21 (stereo not given)
84	i	CCC1CCCCN1S(=O)(=O)c1ccc2[nH]c(=O)cc(C(=O)NC3CCCCC3C)c2c1 (stereo not given)
85	i	CC1CCCCN1Cc1c(O)ccc2c3c(c(=O)oc12)CCC3 (stereo not given)
86	i	COc1ccc(/C=C2/CCCC3=C2OC(N)=C(C#N)C3c2ccc(OC)c(OC)c2OC)c(OC)c1OC (stereo not given)
87	5	CCOc1ccccc1N(C)C(=O)Cn1cnc2sc(C)c(S(=O)(=O)N3CC(C)CC(C)C3)c2c1=O (stereo not given)
88	i	O=C(CSc1c2c(nc3ccccc13)CCCC2)NC1CCCCCC1
89	10	CCSCCOC(=O)C1=C(C)NC2=C(C(=O)C(C(=O)OC)C(C)C2)C1c1ccc(C)cc1 (stereo not given)
90	i	CCC(C)NC(=O)CSc1nc2ccsc2c(=O)n1CCCCCC(=O)O (stereo not given)
91	i	CCC(Oc1ccc2c3c(c(=O)oc2c1)CCC3)C(=O)OC (stereo not given)
92	i	C/C(=N/S(=O)(=O)c1ccc(C)cc1)N1CCN(S(=O)(=O)c2ccc(C)cc2)C1C(C)C (stereo not given)
93	i	COc1ccc(C2C(=O)N(CCc3ccccc3)CC(=O)N2C2CCCCCCC2)cc1 (stereo not given)
94	12	COC(=O)C1C(=O)C2=C(CC1C)NC(C)=C(C(=O)OCc1ccccc1)C2c1ccc(C)o1 (stereo not given)
95	3	Cc1cc(NC(=O)Cn2cc(S(=O)(=O)N3CCC(C)CC3)c3ccccc3c2=O)no1
96	i	COC(=O)c1c(NC(=O)C(CC(C)C)N2C(=O)c3ccccc3C2=O)sc2c1CCC2 (stereo not given)
97	i	CCC(=O)N1CCc2cc(S(=O)(=O)CCC(=O)NCC3CCC(C(=O)O)CC3)ccc21 (stereo not given)
98	i	CCCCn1c(=NC(=O)c2ccc(C(F)(F)F)cc2)c(C(=O)OCC)cc2c(=O)n3ccccc3nc21
99	i	O=C(CSc1nc2ccccc2c(=O)n1CC1CCC(C(=O)NCC2CCCO2)CC1)NCCC1=CCCCC1 (stereo not given)
100	2	CC(=O)Nc1ccc(S(=O)(=O)NCC2CCC(C(=O)NCCCN(C)c3ccccc3)CC2)cc1 (stereo not given)
101	4	CCOc1ccc(CNC(=O)c2cn(CC(C)C)c(=O)c3c2c2ccccc2n3C)cc1
102	12	CCC(C)C(NC(=O)C(CC(=O)OCc1ccccc1)NC(=O)OC(C)(C)C)C(=O)NC(Cc1ccccc1)C(=O)OC (stereo not given)
103	i	CC1CCN(S(=O)(=O)c2cn(CC(=O)Nc3ccc(Oc4ccccc4)cc3)c(=O)c3ccccc23)CC1
104	4	CCOC(=O)CSc1nc2c(c(=O)n1C1CCOC(C)(C)C1)C1(CCCCC1)Cc1ccccc1-2 (stereo not given)
105	i	CCCS(=O)(=O)c1c(S(=O)(=O)CCC)c2cc(CC)ccn2c1C(=O)c1ccc(OC)c(OC)c1
106	i	COc1ccc(C2NC(=O)NC(C)=C2C(=O)OCC(C)C)cc1Br (stereo not given)
107	i	Cc1sc2ncn(CC(=O)N3CCN(c4ccc(F)cc4)CC3)c(=O)c2c1S(=O)(=O)N1CCC(C)CC1
108	i	COc1ccccc1N1CCN(C(=O)Cn2cnc3sc(C)c(S(=O)(=O)N4CCC(C)CC4)c3c2=O)CC1
